eIF4H inh – inhibitors of RNA binding by human eIF4H; eIF4H fluorescence polarization binding assay; inhibition, % at 35 µM; hit rate 0.94% among 290,000; AID 2012;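 active means 50% or more with normal probe brightness, or confirmed in later tests; inconclusive means above 50% with abnormal brightness, or retests that disagree; inactive means below 50% or failed in later tests; about a fifth of its hits are not listed in these tables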;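 further: calls also rest on retests at 20 µM and on dose response follow-up; 0% = protein and probe with vehicle and 100% = probe without protein; strong numbers were not always called active; many hits fall short of the cut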
PABP FP inh – blocks human PABP binding to poly(A) RNA; hit rate 1% among 290,000; fluorescence polarization; inhibition, % at 35 µM; P11940;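 active means 50% or more with normal probe brightness, or confirmed in later tests; inconclusive means above 50% with abnormal brightness, or retests that disagree; inactive means below 50% or failed in later tests; about a fifth of its hits are not listed in these tables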;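 further: calls also rest on retests at 20 µM and on dose response follow-up; controls were probe without protein and protein plus probe with vehicle; some compounds called inactive have numbers as strong as hits; many hits fall short of the cut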
Rce1 inh – yeast Ras-converting enzyme inhibition; Q03530; yeast membranes, quenched prenylated peptide cleavage fluorescence; calls only; hit rate 0.27% among 290,000; AID 2563;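 active means fall in fluorescence gain of 50% or more versus controls, with final raw signal at or below 3038400; inconclusive means same 50% fall but final raw signal above 3038400; inactive means fall in fluorescence gain under 50%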;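 further: plate controls were neutral control wells for no effect and wells lacking membranes for full effect; tested at 10 µM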
Target sequence (Q03530 whole entry, looked up): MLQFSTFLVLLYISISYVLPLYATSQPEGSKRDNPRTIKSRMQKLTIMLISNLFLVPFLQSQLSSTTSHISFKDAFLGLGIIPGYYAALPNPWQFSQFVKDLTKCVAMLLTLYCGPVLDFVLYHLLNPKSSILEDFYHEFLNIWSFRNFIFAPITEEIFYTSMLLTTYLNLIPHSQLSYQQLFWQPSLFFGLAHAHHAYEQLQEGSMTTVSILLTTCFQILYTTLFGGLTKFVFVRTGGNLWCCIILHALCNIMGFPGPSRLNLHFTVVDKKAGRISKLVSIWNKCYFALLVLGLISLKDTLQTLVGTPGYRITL
Env fusion inh – blocks HIV Env-driven cell-cell fusion | HeLa-JRFL Env/CEM21 cell fusion, luciferase | inhibition, % at 12.3 µM | hit rate 1.1% among 360,000 | AID 651610;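 active means mean replicate inhibition score of at least 50 and every replicate individually at or above 50; inconclusive means only one of the two criteria met; inactive means mean below 50 and not all replicates reaching 50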;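 further: 0% = plate neutral controls and 100% = maraviroc near 300 nM; one replicate is shown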
UUG fidelity – modulators of start codon recognition fidelity in yeast; S. cerevisiae UUG-firefly luciferase reporter, luminescence/redox ratio; activity score, % at 18.7 µM; AID 602363; hit rate 0.13% among 350,000;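 active means replicate mean at a twofold rise or more, about +100% in these data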;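 further: firefly luciferase made from a UUG start codon reports start codon fidelity; reporter light over untreated wells divided by growth signal over untreated wells; some hits fall short of that in this replicate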
CSC inhib – blocks cancer stem cells. cancer stem cell-like cells viability, luminescence. inhibition, % at 7.5 µM. hit rate 1.1% among 300,000;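 active means mean at 75% or more and at least half the replicates too; inconclusive means mean and replicates disagree; tested in HMLE shEcad cells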;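 further: 0% = median of negative and 100% = median of positive control wells; the first replicate is given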
MT1-MMP act inh – blocks activation of human MT1-MMP; hit rate 0.061% among 360,000; HT1080 RFP-PRO-GFP cells, GFP/RFP ratio fluorescence, overnight; percent of plate control window, DMSO zero; GFP/RFP ratio change, % at 20 µM; P50281; AID 651647;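 active means GFP/RFP ratio change of at least 30% with cell ATP level not reduced by more than half and red fluorescence within 50% of control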; further: strong numbers were not always called active
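Compound: 20 µM single dose, 1% DMSO / System: HT1080 RFP-PRO-GFP cells / Controls: DMSO and RFP-L50D-GFP cell wells / Read-out basis: GFP/RFP fluorescence ratio / Schedule: overnight compound exposure at 37 °C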
MT1-MMP act inh RFP – recorded beside MT1-MMP act inh, whose call it bears; RFP signal change, %; measured here: RFP expression control read;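 0 = vehicle wells; hits needed this value within 50% of zero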
The depositor's hits bear a star; i = inactive; u = inconclusive; x = not tested or not shown.

The first 6 records (preview)
[1] COc1ccc(N2CCN(C(=O)COc3ccc4c(C)c(C)c(=O)oc4c3C)CC2)cc1
[2] CCOC(=O)[C@H]1[C@H]2COc3cc(OC)ccc3[C@@H]2N2C(=O)c3ccc(F)cc3NC(=O)[C@@]12C
[3] N/N=c1\sc2ccccc2n1-c1ccccc1
[4] O=C(COC(=O)/C=C/c1ccccc1)NCc1ccc(Cl)cc1
[5] O=C(Nc1nnc(-c2ccccc2Cl)o1)c1cccnc1
[6] CCN(CC(=O)Nc1cc(OC)ccc1OC)Cc1nc2ccccc2c(=O)[nH]1
assay / compound | 1 | 2 | 3 | 4 | 5 | 6
eIF4H inh | x | x | 1.0 | 7.4 | 12.1 | -11.0
PABP FP inh | x | x | 1.3 | 5.3 | 9.4 | 10.4
Rce1 inh | i | x | i | i | i | i
Env fusion inh | x | -77.0 | x | 3.6 | x | 17.9
UUG fidelity | -2.4 | -17.2 | -14.9 | x | x | -3.4
CSC inhib | -2.7 | -1.6 | -16.3 | -14.3 | 5.4 | -5.9
MT1-MMP act inh | -1.8 | 13.8 | -2.4 | 1.3 | -1.0 | -2.5
MT1-MMP act inh RFP | -2.0 | 0.0 | -1.4 | 1.8 | -1.5 | -1.8

All compounds of this part, from the start:
[1] COc1ccc(N2CCN(C(=O)COc3ccc4c(C)c(C)c(=O)oc4c3C)CC2)cc1
[2] CCOC(=O)[C@H]1[C@H]2COc3cc(OC)ccc3[C@@H]2N2C(=O)c3ccc(F)cc3NC(=O)[C@@]12C
[3] N/N=c1\sc2ccccc2n1-c1ccccc1
[4] O=C(COC(=O)/C=C/c1ccccc1)NCc1ccc(Cl)cc1
[5] O=C(Nc1nnc(-c2ccccc2Cl)o1)c1cccnc1
[6] CCN(CC(=O)Nc1cc(OC)ccc1OC)Cc1nc2ccccc2c(=O)[nH]1
[7] O=C(CNC(=O)Cc1ccccc1)NCc1cccc(C(F)(F)F)c1
[8] O=C(c1ccc(=O)[nH]n1)N1CCc2ccccc2C1
assay / compound | 1 | 2 | 3 | 4 | 5 | 6 | 7 | 8
eIF4H inh | x | x | 1.0 | 7.4 | 12.1 | -11.0 | 4.8 | -4.3
PABP FP inh | x | x | 1.3 | 5.3 | 9.4 | 10.4 | -7.9 | 3.1
Rce1 inh | i | x | i | i | i | i | i | i
Env fusion inh | x | -77.0 | x | 3.6 | x | 17.9 | -19.4 | -10.3
UUG fidelity | -2.4 | -17.2 | -14.9 | x | x | -3.4 | -9.6 | -7.0
CSC inhib | -2.7 | -1.6 | -16.3 | -14.3 | 5.4 | -5.9 | x | -15.7
MT1-MMP act inh | -1.8 | 13.8 | -2.4 | 1.3 | -1.0 | -2.5 | 3.1 | 3.2
MT1-MMP act inh RFP | -2.0 | 0.0 | -1.4 | 1.8 | -1.5 | -1.8 | 2.5 | 1.9

Arranged by heavy-atom count (smallest number first): some entries from above
[4] O=C(COC(=O)/C=C/c1ccccc1)NCc1ccc(Cl)cc1
[6] CCN(CC(=O)Nc1cc(OC)ccc1OC)Cc1nc2ccccc2c(=O)[nH]1
[2] CCOC(=O)[C@H]1[C@H]2COc3cc(OC)ccc3[C@@H]2N2C(=O)c3ccc(F)cc3NC(=O)[C@@]12C
assay / compound | 4 | 6 | 2
eIF4H inh | 7.4 | -11.0 | x
PABP FP inh | 5.3 | 10.4 | x
Rce1 inh | i | i | x
Env fusion inh | 3.6 | 17.9 | -77.0
UUG fidelity | x | -3.4 | -17.2
CSC inhib | -14.3 | -5.9 | -1.6
MT1-MMP act inh | 1.3 | -2.5 | 13.8
MT1-MMP act inh RFP | 1.8 | -1.8 | 0.0

Remaining list, next part.
[9] C/C(=N\NC(=O)c1nnn(-c2nonc2N)c1-c1ccc2c(c1)OCO2)c1ccc(F)cc1
[10] CCNc1nc(NCC)n2c(SCC(=O)Nc3ccccc3[N+](=O)[O-])nnc2n1
[11] COc1ccc(NC(=O)c2ccc3c(c2)n(C)c(=O)n3C)cc1
[12] O=C(O)Cn1cc(/C=C2/SC(=O)N(CC(=O)N3CCCCCC3)C2=O)c2ccccc21
[13] Cc1sc2ncnc(N3CCN(Cc4ccccc4)CC3)c2c1-c1ccc(F)cc1
[14] COc1ccc(NC(=O)CSc2nnnn2C2CCCC2)cc1
[15] CCOC(=O)c1c(NC(=O)c2ccc(S(=O)(=O)N3CCOCC3)cc2)sc2c1CCN(C(C)C)C2
[16] CC(=O)Nc1ccc(CN(C)c2c(C)nc3ccc(C(=O)N4CCN(C(=O)c5ccco5)CC4)cn23)cc1
assay / compound | 9 | 10 | 11 | 12 | 13 | 14 | 15 | 16
eIF4H inh | -8.2 | 4.1 | 6.9 | 6.3 | -21.4 | -4.6 | -6.3 | x
PABP FP inh | -8.9 | -4.4 | 9.4 | -0.6 | 5.9 | -3.9 | -10.9 | x
Rce1 inh | i | i | i | x | i | i | i | x
Env fusion inh | 2.6 | -0.2 | -0.6 | 5.4 | -2.4 | 1.1 | -5.7 | 21.2
UUG fidelity | -24.2 | x | 7.7 | x | -14.6 | x | -22.2 | -24.8
CSC inhib | 0.0 | 14.3 | -6.2 | -3.7 | -15.0 | -6.0 | -11.4 | x
MT1-MMP act inh | 3.8 | -4.5 | 10.0 | x | -1.3 | 4.3 | -10.7 | -2.3
MT1-MMP act inh RFP | -0.9 | -5.5 | 12.9 | x | -6.9 | -6.4 | -6.7 | 3.0

[17] O=C(Nc1cccc(S(=O)(=O)N2CCOCC2)c1)c1cn(-c2ccccc2)nc1-c1ccc(F)cc1
[18] Cc1c(NC(=O)C(=O)/C=C(\O)c2ccc(Cl)cc2)c(=O)n(-c2ccccc2)n1C
[19] Cn1c2ccccc2c2cc(/C=N/NC(=O)c3ccccc3F)ccc21
[20] O=C(NCCOc1ccccc1)C1CCC(=O)N(CCc2ccc(Cl)cc2)C1 (stereo unspecified)
[21] COc1cc([N+](=O)[O-])ccc1Nc1nc(C)cc(C)n1
[22] CCOC(=O)N1CCN(C(=O)C(=O)NNC(=O)COc2ccc(Cl)cc2)CC1
[23] Cc1ccc2c(=O)cc(C(=O)NC3CCS(=O)(=O)C3)oc2c1 (stereo unspecified)
[24] Cc1cc(C)n(-c2ccc(NC(=O)C3CCCCN3C(=O)c3cc(C)oc3C)cc2)n1 (stereo unspecified)
assay / compound | 17 | 18 | 19 | 20 | 21 | 22 | 23 | 24
eIF4H inh | 7.4 | 1.3 | -6.7 | -15.6 | -4.7 | -0.3 | x | -8.5
PABP FP inh | 3.4 | -2.9 | 11.7 | 0.2 | -4.0 | 2.5 | x | 7.6
Rce1 inh | i | i | i | i | i | i | i | i
Env fusion inh | 11.8 | -20.2 | -42.3 | -296.6 | -12.7 | 8.5 | -3.3 | 3.3
UUG fidelity | -11.0 | x | 7.1 | -4.6 | 5.4 | x | 10.3 | -17.8
CSC inhib | 22.5 | -8.6 | 0.0 | -5.1 | x | -8.9 | -5.7 | -3.7
MT1-MMP act inh | 4.2 | 1.6 | 2.1 | 0.3 | -0.5 | -1.2 | -0.9 | 1.3
MT1-MMP act inh RFP | 2.8 | 0.4 | -5.2 | -7.0 | -0.3 | -1.6 | 3.0 | -1.4

[25] COc1ccc(CC(N)c2csc(NC(=O)Nc3ccc(C(C)C)cc3)n2)cc1 (stereo unspecified)
[26] Cc1sc2nc(CSCC(=O)NC(C)(C)C)[nH]c(=O)c2c1C
[27] NC(=O)[C@@H]1CCCN1Cc1c(C(=O)N2CCc3ccccc3C2)nc2ccc(Cl)cn12
[28] COc1cc(-c2cc(C(=O)OCC(=O)Nc3ccc4c(c3)OCO4)c3ccccc3n2)cc(OC)c1OC
[29] CCC(=O)Nc1ccc2nc(SCC(=O)N3CCOCC3)sc2c1
[30] CC1C(=O)N(Cc2cn(CC3CCCCC3)nn2)CCS(=O)(=O)N1Cc1ccc(-c2ccccc2)cc1 (stereo unspecified)
[31] CNCC(O)CN(c1ccccc1)c1ccccc1 (stereo unspecified)
[32] O=C(COc1cccc(Cl)c1)Nc1cc(S(=O)(=O)N2CCOCC2)ccc1N1CCOCC1
[33] CCOC(=O)CN(C(=O)Cn1nnc2ccccc21)C(C(=O)NCCOC)c1ccccc1C (stereo unspecified)
assay / compound | 25 | 26 | 27 | 28 | 29 | 30 | 31 | 32 | 33
eIF4H inh | x | 16.8 | u | 35.7 | -3.6 | x | 5.4 | -10.5 | -4.8
PABP FP inh | x | 14.9 | 36.1 | -8.0 | 6.0 | x | 2.9 | 5.3 | 3.1
Rce1 inh | x | i | i | i | i | x | i | i | i
Env fusion inh | 23.4 | -13.9 | 16.5 | 12.8 | 18.1 | 27.8 | -3.5 | 2.3 | x
UUG fidelity | -8.9 | x | -21.1 | -18.2 | x | -13.5 | x | -10.2 | -15.0
CSC inhib | x | -1.4 | -10.8 | -14.5 | -17.8 | x | -4.8 | 9.7 | 1.2
MT1-MMP act inh | -3.6 | -8.6 | -8.4 | -1.2 | -1.7 | -4.6 | 0.4 | -1.0 | -1.5
MT1-MMP act inh RFP | -9.5 | 0.5 | -0.3 | 5.1 | -0.8 | -14.7 | 2.5 | -5.5 | -0.4
